Bioassay records (PubChem BioAssay)
Cruzain Triton = blocks cruzain activity in presence of Triton detergent; Potency, µM, without a hit: max response, negative = inhibition, actives largely listed as inhibitors; P25779; purified cruzain, Z-FR-AMC fluorescence, 0.01% Triton; 200,000 compounds, 0.43% hits;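 note: plate controls were neutral wells for no effect and buffer without enzyme for full effect; nearly all actives have a fitted effect of over 40% in size; top concentration of the series not given in the record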
Target sequence (P25779 123-467 limits assumed): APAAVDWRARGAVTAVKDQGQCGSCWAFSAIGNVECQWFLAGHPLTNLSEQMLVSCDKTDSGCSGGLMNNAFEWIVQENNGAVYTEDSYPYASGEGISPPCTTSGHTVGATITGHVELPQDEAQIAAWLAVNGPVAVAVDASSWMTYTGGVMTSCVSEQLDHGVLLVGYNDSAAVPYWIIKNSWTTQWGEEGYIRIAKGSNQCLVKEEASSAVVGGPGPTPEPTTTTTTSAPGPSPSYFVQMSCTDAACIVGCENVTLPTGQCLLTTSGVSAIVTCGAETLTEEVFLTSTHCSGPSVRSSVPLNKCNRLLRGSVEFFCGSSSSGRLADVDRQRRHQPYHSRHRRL
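Compounds were screened in titration against cruzain (1.5 nM) with 0.01% Triton X-100 to counter colloidal aggregation. Activity was the AMC fluorescence increase over 60 s after adding 2 uM Z-FR-AMC at pH 5.5.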
Cruzain noTriton = cruzain (T. cruzi) inhibition without detergent | P25779 | purified cruzain, Z-FR-AMC fluorescence, no detergent | Potency, µM, for the others: max response, negative = inhibition, usual class: inhibitors | 200,000 compounds, 2.3% hits | AID 1476;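 note: plate controls were enzyme without inhibitor for no effect and buffer without enzyme for full effect; nearly all actives have a fitted effect of over 40% in size; top concentration of the series not given in the record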
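Purified cruzain at 1.5 nM, pre-incubated 15 min with compound at room temperature in 100 mM sodium acetate pH 5.5, 5 mM DTT, 0.00005% Triton X-100. Reaction started with 2 uM Z-FR-AMC; AMC fluorescence increase over 60 s gives rate.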
NS1 inh = blocks influenza NS1 protein function; S. cerevisiae slowed by influenza A NS1, growth recovery by OD600; Potency, µM (series often up to 46.1 µM), inactives show at the top dose activity, positive = more growth; 270,000 compounds, 0.4% hits; active means well fitted rising curve with a large enough effect; inconclusive means small, poorly fitted or top-dose-only effect; inactive means no such curve, though single readings can be large or run the other way; note: nearly all actives have a fitted effect of over 50% in size
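S. cerevisiae expressing influenza A NS1, grown in glucose, washed, then diluted 1:100 into pH 6.0 -URA galactose medium with 23 nl compound. Growth recovery read as OD600; NS1-free strain serves as control.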
RE007 growth inh = less growth of the S. pombe RE007 Vpr strain. S. pombe RE007 Vpr strain, BacTiter-Glo ATP luminescence, 24 h; control for the full effect not named in the record. Potency, µM (doses to about 92.2 µM), for inactives: at the top dose activity change, negative = less growth. 360,000 compounds, 0.21% hits. AID 651644; active = well fitted falling curve with a large enough effect; inconclusive = small, poorly fitted or top-dose-only effect; inactive = no such curve, though single readings can be large or run the other way;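 note: % is set by controls: 0 for no effect and ±100 for the full control effect; nearly all actives have a fitted effect of over 50% in size; the assay follows cell death caused by Vpr and the record does not say whether a fall means rescue or toxicity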
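Fission yeast RE007 carrying one integrated HIV-1 vpr copy, seeded at OD 0.01 in PMG+AL medium with 23 nL pinned compound. Grown 24 h at 30 degrees; viability read by BacTiter-Glo luminescence after 5 min.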
SARS PLP yeast = SARS-CoV PLP inhibition in yeast. Potency, µM (doses to about 32.9 µM), without a hit: at the top dose activity, positive = growth rescue. S. cerevisiae expressing SARS-CoV PLpro, growth rescue; control for the full effect not named in the record. 330,000 compounds, 0.19% hits; active means well fitted rising curve with a large enough effect; inconclusive means small, poorly fitted or top-dose-only effect; inactive means no such curve, though single readings can be large or run the other way; note: 0% is about no effect; nearly all actives have a fitted effect of over 55% in size; growth read by luminescence after 48 h
StopGo reporter = lowers the luciferase signal of an FMDV 2A StopGo reporter; AID 1159524; 410,000 compounds, 1.2% hits; Potency, µM (titrated, usually from 57.9 µM), without a hit: top-dose signal change, negative = less light; human cells with a luciferase reporter of 2A StopGo recoding; control for the full effect not named in the record; active = well fitted falling curve with a large enough effect; inconclusive = small, poorly fitted or top-dose-only effect; inactive = no such curve, though single readings can be large or run the other way; tested in HEK293T cells; note: % is set by controls: 0 for no effect and ±100 for the full control effect; nearly all actives have a fitted effect of over 45% in size; luciferase light after 4 h
MARV entry inh = Marburg virus entry inhibition; Potency, µM (series often up to 37.8 µM), without a hit: top-dose activity change, negative = inhibition, most hits filed as inhibitors; Marburg virus pseudotyped entry inhibition, cell reporter; control for the full effect not named in the record; about a third of the inactives were read at about 46 µM; 300,000 compounds, 1.8% hits; active = well fitted inhibition curve with a large enough effect; inconclusive = small, poorly fitted or top-dose-only effect, or effect the other way; inactive = flat fitted curve, though single readings scatter; tested in HEK293 cells; about a fifth of its hits are not listed in these tables; note: % is set by controls: 0 for no effect and ±100 for the full control effect; luciferase read-out
LASV entry inh = Lassa virus entry inhibition; AID 540256; Potency, µM (series often up to 37.9 µM), inactives show at the highest dose activity change, negative = inhibition, most hits filed as inhibitors; Lassa virus pseudotype entry inhibition, cell reporter; control for the full effect not named in the record; 300,000 compounds, 1.2% hits; active means well fitted inhibition curve with a large enough effect; inconclusive means small, poorly fitted or top-dose-only effect, or effect the other way; inactive means flat fitted curve, though single readings scatter; tested in HEK293 cells; note: % is set by controls: 0 for no effect and ±100 for the full control effect; nearly all actives have a fitted effect of over 50% in size; luciferase read-out
* hit, by the source's call; ? = inconclusive; . = not tested or not shown; [ ] = another dose, or the depositor's remark. Unless noted, calls come from the whole dose curve; as a rule, active = well fitted curve in the direction sought with a large enough effect; inconclusive = small, poorly fitted or top-dose-only effect, or another doubt; inactive = no such curve, though single readings can be large; an effect the other way counts as inactive or inconclusive. Potency is the fitted concentration of half-maximal effect. Rows were taken by chance; about 4.6% have a hit in one of these screens.

Screens in order – Cruzain Triton	Cruzain noTriton	NS1 inh	RE007 growth inh	SARS PLP yeast	StopGo reporter	MARV entry inh	LASV entry inh
c1ccc(CSc2ncnc3c2sc2nc(N4CCOCC4)c4c(c23)CCCC4)cc1
→ -17%	3.2µM*	4%	-3%	-11%	-7%	5%	19%
O=C(O)CNS(=O)(=O)/C=C/c1ccccc1
→ .	.	.	4%	-1%	-26%	1%[46.1 µM]	28%[46.1 µM]
Cc1csc(SCc2ccc(C(=O)O)cc2)n1
→ 2.2%	5%	-75%	2%[3.69 µM]	3%	-3%	-15%	-3%
Cc1nc(NCC2CC2)c2nnn(Cc3ccccc3)c2n1
→ .	.	-1%	24%	0%	4%	?	-1%
CCOc1ccccc1Nc1nc2ccccc2[nH]1
→ -4.1%	-12%	-12%	3%	-8%	61%[activator]	-4%	2%
NC(=O)COC(=O)/C=C/c1ccc(S(=O)(=O)N2CCCCCC2)cc1
→ .	.	.	8%	-3%	36%[activator]	-9%[46.1 µM]	-1%[46.1 µM]
N#Cc1ccc(OCc2ccc(C(=O)O)o2)cc1
→ .	.	5%	5%	-3%	37%[activator]	14%[46.1 µM]	?
O=C1CCC[C@@H]2[C@H]3CCC[N+]4([O-])CCC[C@@H](CN12)[C@@H]34 (stereo partly drawn)
→ .	.	4%	-2%	1%	-5%	?	4%[46.1 µM]
CCCCc1nc2cc(C(=O)N3CCCC3)ccc2o1
→ .	.	-6%	8%	-1%	58%[activator]	.	.
COCCSc1ccccc1C(=O)Nc1nnc(C)s1
→ -0.4%	-6%	3%	-16%	4%	.	-1%	14%
COc1ccc(N2CC(C(=O)N[C@H](C(=O)NC3CCCCC3)C(C)C)CC2=O)cc1 (stereo partly drawn)
→ .	.	11%	6%	-5%	4%	-1%[46.1 µM]	-4%[46.1 µM]
CC(=O)c1cccc(NC(=O)C2CCCN(C(=O)c3cnn(-c4ccccc4)c3-n3cccc3)C2)c1 (stereo not drawn)
→ -3.2%	?	.	.	.	-26%	.	0%[46.1 µM]
Cc1cc(C)nc(N2CCN(c3nnnn3-c3ccccc3)CC2)n1
→ -5.5%	6%	-3%	1%	2%	-10%	-2%[46.1 µM]	2%
CN(C)C(=O)N1CCCC(C(=O)NCCc2ccccc2)C1 (stereo not drawn)
→ 2.4%	-23%	-51%	9%	11%	0%	14%	8%
COc1ccc(S(=O)(=O)N2CCC(C(=O)N[C@H](C(=O)NCc3ccco3)C(C)C)CC2)cc1
→ .	.	3%	2%	1%	-2%	?	22%[46.1 µM]
O=S(=O)(Nc1ccc(OC(F)(F)F)cc1)c1ccc(N2CCCCS2(=O)=O)cc1
→ -10%	26%	.	.	.	-5%	.	-1%[46.1 µM]
O=C(CSCc1ccc(Cl)cc1)NN=C1CCCCCC1
→ -1.5%	-6%	11%	-9%	-4%	-22%	?	-4%
O=C(O)C1CCC(CNS(=O)(=O)c2ccccc2)CC1 (stereo not drawn)
→ .	.	0%	-12%	0%	-9%	-14%[46.1 µM]	13%[46.1 µM]
Cn1nc(C(=O)Nc2sccc2C(N)=O)ccc1=O
→ -1.3%	-15%	?	5%	-6%	19%	-29%[46.1 µM]	-2%
CCN1CCN(C(=O)c2ccc(Sc3ccccc3Cl)c([N+](=O)[O-])c2)CC1
→ -2.4%	6%	-7%	19%	-8%	-16%	?	-10%
COc1ccc(C(=O)N/C(=C/c2cccnc2)C(=O)Nc2cccc(C(C)=O)c2)cc1OC
→ .	.	-1%	-17%	3%	-4%	8%[46.1 µM]	14%
O=C(c1ccc(S(=O)(=O)Nc2ccccc2)cc1)N1CCCC(C(F)(F)F)C1 (stereo not drawn)
→ .	.	12%	3%	-10%	0%	.	.
CCN(CC(=O)Nc1cc(Cl)ccc1OC)CC(=O)NC1CCS(=O)(=O)C1 (stereo not drawn)
→ .	.	-44%	-1%	-2%	-4%	.	.
Cc1nn2c(=O)cc(COC(=O)c3ccc(NC(=O)C4CCCCC4)cc3)nc2s1
→ -0.7%	-3%	.	.	.	11µM*	.	4%[46.1 µM]
Cc1onc(-c2ccccc2)c1C(=O)N1CCC(C)CC1
→ -3.1%	-10%	-3%	13%	?	-15%	1%	-7%
CCCCn1c(N)c(N(CCOC)C(=O)c2cc(CC)c(C)s2)c(=O)[nH]c1=O
→ .	.	.	-16%	-1%	-23%	4%	11%
Cc1cc2oc(=O)cc(CSc3nnc(-c4cccs4)o3)c2cc1C(C)C
→ -6.3%	13µM*	?	2%	-9%	?	?	?
Cc1cc(-c2n[nH]c(=S)n2/N=C/C=C/c2ccco2)n[nH]1
→ .	.	13%	6%	1%	-5%	5%[46.1 µM]	-9%
CC(C)NC(=S)N1CCN(c2ncccn2)CC1
→ 0.4%	5%	-1%	-22%	-2%	-10%	?	1%
O=C(NNC(=O)C1CCN(Cc2ccccc2)CC1)c1cccs1
→ .	.	-1%	6%	0%	9%	-13%[46.1 µM]	.
c1ccc(-c2nnc(SCc3nc4ccccc4[nH]3)n2Cc2ccco2)cc1
→ 2.4%	-5%	1%	3%	13%	-7%	-12%	8%
Cc1oc(-c2ccc(Cl)cc2)nc1CN1CCCC(C(=O)N2CCN(C(=O)c3ccco3)CC2)C1 (stereo not drawn)
→ -1.9%	-10%	5%	-11%	1%	14µM*	-10%	.
COc1ccccc1NC(=O)CCn1nc(-c2ccccc2OC)c2c(C)cc(C)nc21
→ -4.6%	?	.	.	.	-25%	0%[46.1 µM]	?
Cc1cc(=O)n2c(C(=O)Nc3ccc(C)c(Cl)c3)c(C(=O)Nc3ccccc3)sc2n1
→ -4.5%	-8%	.	.	.	-2%	-8%[46.1 µM]	?
COc1cc(C2NCc3ccccc3-n3cccc32)ccc1O (stereo not drawn)
→ -11%	-7%	?	4%	-4%	-1%	?	1%
Cc1ccc2cccc(OCC(=O)N3CC(C)CC(C)C3)c2n1 (stereo not drawn)
→ .	.	.	-8%	-1%	-5%	9%[46.1 µM]	.
Cc1ccc(CNC(=O)CCc2ccc(S(=O)(=O)NCC(C)C)cc2)cc1
→ .	.	4%	-4%	0%	18%	?	-30%
C#CCOc1nc2c(c(=O)n(C)c(=O)n2C)n1Cc1ccccc1
→ .	.	-6%	18%	-1%	?	.	.
Cc1ccc2scc(N3CCCC(C)C3)c(=O)c2c1 (stereo not drawn)
→ -4.2%	-7%	.	.	.	-15%	.	?
CC(OC(=O)c1cccc(N2C(=O)c3ccccc3C2=O)c1)C(=O)Nc1ccc(N(C)C)cc1 (stereo not drawn)
→ ?	?	?	13%	6%	5%	5%	-4%
CCC(=O)Nc1ccccc1-c1nc2ccccc2n(CC(=O)c2ccc(C)c(C)c2)c1=O
→ -2.6%	1%	.	.	.	-14%	?	11%[46.1 µM]
CCc1ccc(-c2ccc(SCC(=O)NCC3CCCO3)nn2)cc1 (stereo not drawn)
→ .	.	2%	5%	0%	-14%	-14%	-23%
Cc1cc(C)cc(NC(=O)CCN2C(=O)c3ccccc3C2=O)c1
→ .	.	0%	9%	1%	-18%	-3%[46.1 µM]	7%[46.1 µM]
O=C(Oc1ccccc1F)c1ccc2c(=O)n3c(nc2c1)CCC3
→ .	.	.	8%	-1%	21%	1%[46.1 µM]	6%
O=C(Oc1cccc2cccnc12)c1ccco1
→ -1.6%	-9%	-5%	28µM*	-57%	-7%	-1%	1%
O=C(Nc1cc(S(=O)(=O)N2CCCCC2)ccc1N1CCOCC1)c1ccc(F)cc1
→ .	.	.	-9%	-5%	2%	?	-1%
CC(=O)C1=C(C)NC(=O)NC1c1ccccc1OCC(=O)NCCc1ccccc1 (stereo not drawn)
→ 1.5%	5%	-2%	-17%	1%	-7%	-2%	16%[14.3 µM]
CCCCC1N2CC3([N+](=O)[O-])CN1CC([N+](=O)[O-])(C2)C3(C)C (stereo not drawn)
→ 2.6%	-5%	2%	4%	9%	0%	15%	7%
CCC(C)N(C(=O)COC(=O)CSc1ccc([N+](=O)[O-])cc1)C1CCS(=O)(=O)C1 (stereo not drawn)
→ .	.	-8%	-13%	-4%	-1%	3%	1%
COC(=O)c1cc(C(=O)OCC(=O)NCc2ccc3c(c2)OCO3)cc([N+](=O)[O-])c1
→ -4.6%	0%	13%	-16%	20%	-12%	0%	?
CCN(CC)S(=O)(=O)c1cccc(C(=O)Nc2cccc(C)c2)c1
→ -5.0%	-8%	0%	8%	-3%	26%	15%	-15%
CC(=O)c1ccc(NC(=O)CN(C)S(=O)(=O)c2cc3c(cc2C)NC(=O)CO3)cc1
→ 1.0%	-4%	.	.	.	-13%	.	-1%[46.1 µM]
CSCC[C@H](NC(=O)OC(C)(C)C)c1nnc(SCc2cccc(F)c2)o1
→ -2.5%	8%	-3%	13%	-14%	?	-34%	?
Cc1ccc(/C=C/C(=O)Nc2ccc(Cl)cc2Cl)cc1
→ 1.1%	-2%	.	.	.	1%	.	.
CC1CCN(c2ccc([N+](=O)[O-])cn2)CC1
→ -4.8%	-14%	-7%	-1%	-3%	36%[activator]	21%	?
Cn1c(SCC(=O)Nc2cc(Cl)cc(Cl)c2)nnc1-c1ccc2nonc2c1
→ .	.	5%	3%	0%	?	-3%[46.1 µM]	?
Cc1ccc(NC(=O)C2CCCC2)cc1Cl
→ .	.	.	7%	.	11%	?	-27%[46.1 µM]
Cc1ccc(C(=O)N2CCN(c3ccc([N+](=O)[O-])c(N4CCOCC4)c3)CC2)cc1
→ -12%	15%	-6%	6%	0%	-10%	?	-15%
S=c1[nH]nc(-c2cccs2)n1C1CCCCC1
→ .	.	7%	-2%	1%	-15%	-2%	-10%
CN1CCc2c1nc1ccccc1c2NC(=O)CN1CCCC1
→ .	.	9%	-1%	1%	-8%	?	21%[46.1 µM]
COc1ccc2nc(NCCO)[nH]c2c1
→ -6.4%	-23%	1%	-16%	-8%	-12%	?	10%
CN(CCC1CCOCC1)C(=O)CC1C(=O)NCCN1Cc1ccccc1F (stereo not drawn)
→ .	.	-12%	-7%	?	-18%	-7%	26%
